# Mtb H37Rv: M. tuberculosis H37Rv growth inhibitors, H37Rv strain (AID 1626); inhibition, % at 10 µM, or IC50 in µM where a hit was titrated; M. tuberculosis H37Rv growth inhibition; higher % means a stronger effect; actives 0.95% (n = 220,000);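 active means confirmed in a dose series; inconclusive means inhibition above 80% but not taken into the dose series; inactive means below 80% or under 30% at every dose of the series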;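 further: bacteria incubated seven days before Alamar blue readout; 0% = bacteria only wells and 100% = bacteria with antibiotic wells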
# RecA intein inh: Mtb RecA intein splicing inhibition. AID 2221. actives 0.75% (n = 290,000). cell-free RecA intein splicing, fluorescence. inhibition, %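 (about 9 µM by stock and volumes)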; in the data active means inhibition above about 30%; inconclusive means no clear call, values can overlap the other calls;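 further: 0% = vehicle wells and 100% = reference inhibitor control wells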
# Target sequence (P9WHJ3 whole entry, looked up): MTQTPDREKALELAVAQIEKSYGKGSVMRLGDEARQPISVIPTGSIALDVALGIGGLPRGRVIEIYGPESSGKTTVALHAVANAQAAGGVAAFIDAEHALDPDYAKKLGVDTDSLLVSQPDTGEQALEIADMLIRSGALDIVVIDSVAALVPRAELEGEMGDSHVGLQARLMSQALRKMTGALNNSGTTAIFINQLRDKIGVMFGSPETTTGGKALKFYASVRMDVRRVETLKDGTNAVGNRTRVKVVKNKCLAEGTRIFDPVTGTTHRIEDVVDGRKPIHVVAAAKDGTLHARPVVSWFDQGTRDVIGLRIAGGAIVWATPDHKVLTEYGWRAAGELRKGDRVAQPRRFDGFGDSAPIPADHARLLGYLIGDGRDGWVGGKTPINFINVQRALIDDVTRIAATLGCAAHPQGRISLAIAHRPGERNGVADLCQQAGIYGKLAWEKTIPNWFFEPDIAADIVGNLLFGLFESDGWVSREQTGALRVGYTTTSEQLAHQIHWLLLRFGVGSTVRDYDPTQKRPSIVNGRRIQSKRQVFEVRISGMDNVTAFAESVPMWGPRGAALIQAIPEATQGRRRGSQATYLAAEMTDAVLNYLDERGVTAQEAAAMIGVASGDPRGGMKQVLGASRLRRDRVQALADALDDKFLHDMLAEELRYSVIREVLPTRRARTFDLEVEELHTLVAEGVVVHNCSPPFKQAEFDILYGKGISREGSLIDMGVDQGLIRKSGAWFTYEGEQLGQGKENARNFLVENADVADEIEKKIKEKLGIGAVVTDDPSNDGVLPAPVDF
# Arbovirus inh: arbovirus infection inhibition | AID 1251 | arbovirus infection cell-based antiviral screen | actives 0.37% (n = 200,000) | inhibition, % at 10 µM;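 active means inhibition from about 30%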;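 further: bluetongue infection of BSR cells; cell survival read as ATP light after 72 h; 0% = infected wells without compound and 100% = uninfected wells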
# Mtb bLac sens: beta-lactam sensitization of Mtb H37Rv; M. tuberculosis H37Rv growth with meropenem, percent inhibition; hits of this screen are not shown here; inhibition, % at 25 µM; actives 0.27% (n = 330,000);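 active means about 74% or more and at least 40 points above the plate without the antibiotic, then above 30% in a dose series; inconclusive means first-round hits that could not be retested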;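 further: growth measured after seven days incubation then overnight dye step; 0% = bacteria only wells and 100% = bacteria with antibiotic; twin plates without the antibiotic show which effects depend on it; some results filed as inactive read as strong as hits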
# YopH inh: blocks Yersinia enterocolitica YopH tyrosine phosphatase; fluorescence Ex485/Em525; inhibition, %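 (about 10 µM by stock and volumes)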; actives 0.16% (n = 140,000); AID 898;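 active means inhibition of 50% or more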;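 further: controls were vehicle for no effect and minimum signal wells for full effect; inactives centre near -20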
# Arbovirus inh repeat: recorded beside Arbovirus inh, whose call it bears; inhibition, %; measured here: 10K subset replicate screen; many hits read low in the repeat;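 first of two repeat runs on a subset; 0% = infected and 100% = uninfected wells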
# * hit, by the source's call; u = inconclusive; x = no result given; & = joins results of further samples.
# Preview (6 entries):
SMILES,Mtb H37Rv,RecA intein inh,Arbovirus inh,Mtb bLac sens,YopH inh,others
Cc1ccccc1OCC(=O)Nc1cccc2nsnc12,3%,-3.9,0,18,33,
COC(=O)CSc1nnc(CNC(=O)c2cccs2)n1-c1cc(OC)ccc1OC,-12%,x,9,-4,-17,
O=C1NC(=O)C(=Cc2ccc(SC3CCCCC3)o2)C(=O)N1,59%,1.3,13,88,x,
CC(=O)c1cc(-c2ccccc2)n(CC(=O)Nc2cc(C)cc(C)c2)c1C,2%,-2.4,-2,-1,-10,
COCCn1c(SCc2ccc(OC)c(F)c2)nnc1-c1ccncc1,x,-0.9,x,-7,x,
O=C(Nc1ccccc1)N1CCC(=S)Nc2ccccc21,1%,21,4,1,-17,

# Results, from the first entry:
SMILES,Mtb H37Rv,RecA intein inh,Arbovirus inh,Mtb bLac sens,YopH inh,others
Cc1ccccc1OCC(=O)Nc1cccc2nsnc12,3%,-3.9,0,18,33,
COC(=O)CSc1nnc(CNC(=O)c2cccs2)n1-c1cc(OC)ccc1OC,-12%,x,9,-4,-17,
O=C1NC(=O)C(=Cc2ccc(SC3CCCCC3)o2)C(=O)N1,59%,1.3,13,88,x,
CC(=O)c1cc(-c2ccccc2)n(CC(=O)Nc2cc(C)cc(C)c2)c1C,2%,-2.4,-2,-1,-10,
COCCn1c(SCc2ccc(OC)c(F)c2)nnc1-c1ccncc1,x,-0.9,x,-7,x,
O=C(Nc1ccccc1)N1CCC(=S)Nc2ccccc21,1%,21,4,1,-17,
O=C(NNC(=S)Nc1ccccc1)c1ccccc1[N+](=O)[O-],-6%,-4.0,4,-2,x,
COc1ccc(CCNC(=O)C2CCCN2C(=O)NC2CCCCC2)cc1OC (centres undefined),-13%,0.1,4,7,-9,
COC(=O)C(=O)/C=C(\O)c1c(C)cc(C)cc1C,3%,0.5,x,-8,x,
Cc1ccc(-c2nnc(Nc3ccc4c(c3)nc(C)n4C)c3ccccc23)cc1,-2%,x,-12,18,-23,
Brc1ccc(N=NNc2ccccc2)cc1,x,10,x,93,x,
O=C(CSc1nc2c(c(=O)[nH]1)CCCC2)Nc1ccc(Cl)cc1F,2%,0.7,4,15,-38,
COCCCNS(=O)(=O)c1ccc2c(c1)CCN2C(C)=O,5%,1.3,3,2,-14,
CCC(Br)C(=O)Nc1ccc(OC)cc1 (centres undefined),2%,1.8,4,7,x,
C#CCOCCOCCOCCNc1nc(N2CCOCC2)nc(N2CCN(C(=O)[C@H](CCCCN)n3cc([C@@H](N)CC(C)C)nn3)CC2)n1,-8%,2.7,1,-9,x,
Cc1ccc(-c2cnn3c(N4CCOCC4)cc(C)nc23)cc1,x,-2.6,x,14,x,
CC12CCC(C(=O)NCc3ccccc3)(OC1=O)C2(C)C (centres undefined),-1%,1.1,0,-11,-25,
COc1ccc(C(CNC(=O)c2oc3ccc(F)cc3c2C)N2CCCCC2)cc1 (centres undefined),x,8.8,x,8,x,
CCOc1ccc2nc(N(CCN(CC)CC)C(=O)c3cccc([N+](=O)[O-])c3)sc2c1,3%,0.1,-10,-4,x,
O=C(O)CCN=C1CCCc2ccccc2N1,-9%,-2.2,9,-6,-33,

# Random excerpt: five compounds from above
SMILES,Mtb H37Rv,RecA intein inh,Arbovirus inh,Mtb bLac sens,YopH inh,others
Cc1ccc(-c2cnn3c(N4CCOCC4)cc(C)nc23)cc1,x,-2.6,x,14,x,
CC12CCC(C(=O)NCc3ccccc3)(OC1=O)C2(C)C (centres undefined),-1%,1.1,0,-11,-25,
COc1ccc(CCNC(=O)C2CCCN2C(=O)NC2CCCCC2)cc1OC (centres undefined),-13%,0.1,4,7,-9,
COCCn1c(SCc2ccc(OC)c(F)c2)nnc1-c1ccncc1,x,-0.9,x,-7,x,
CC(=O)c1cc(-c2ccccc2)n(CC(=O)Nc2cc(C)cc(C)c2)c1C,2%,-2.4,-2,-1,-10,

# Going on with the list.
SMILES,Mtb H37Rv,RecA intein inh,Arbovirus inh,Mtb bLac sens,YopH inh,others
COc1ccc(C(=O)COC(=O)c2ccc(OC)c(OC)c2)cc1OC,-7%,0.2,-7,-2,-29,
Cc1ccc(-c2nnc(N3CCC(C)CC3)c3ccccc23)cc1,29%,11,5,59,x,
CCN(CC)S(=O)(=O)c1ccc(S(=O)(=O)Nc2c(C)nn(C)c2C)cc1,x,-3.9,x,-12,x,
Cn1cc([N+](=O)[O-])c(C(=O)N/N=C/c2ccncc2)n1,x,-6.9,x,-12,x,
O=C(/C=C/Nc1ccc(F)cc1)c1cccs1,0%,0.8,x,2,-19,
Cc1ccc2c(c1C)NC(=O)C2(O)CC(=O)c1ccc2c(c1)OCO2 (centres undefined),-4%,2.2,2,-2,-4,
CC(C)(Oc1ccc(CCNC(=O)c2ccc(-c3ccccc3)o2)cc1)C(=O)O,-10%,0.0,7,9,-23,
O=C(c1cccc(F)c1)N1CCN(Cc2c[nH]c3ccccc23)CC1,4%,-1.0,17,-1,-35,
Cc1ccc(S(=O)(=O)NCC(=O)NC2CC2)cc1,x,-1.2,x,2,x,
Cc1nnc(SCc2ccccc2Cl)n1CC1CCCO1 (centres undefined),-4%,-0.6,-1,-12,-23,
CCC(c1nnc(SCC(=O)Nc2cccc(S(N)(=O)=O)c2)n1Cc1ccccc1)N(C)C (centres undefined),2%,1.6,x,-8,x,
Cc1oc(-c2cc(F)ccc2F)nc1CN(C)Cc1ccc2nccnc2c1,-8%,0.6,-1,-5,x,
Nc1nc(-c2ccccc2)nc2sc3c(c12)CCCC3,11%,-0.4,7,7,-18,
Cc1nn(Cc2ccc(C(=O)Nc3ccccc3F)cc2)c(C)c1Cl,-2%,-4.8,-33,1,x,
Cc1ccc(CN(C)C(=O)c2cc(COc3cccc(C(F)(F)F)c3)on2)o1,x,16,x,u,x,
O=C(NCCN1C(=O)S/C(=C/c2cccnc2)C1=O)C1CC(=O)N(Cc2ccccc2)C1 (centres undefined),5%,-0.1,30*,4,x,
O=C(Cn1c(=O)c2cccn2c2ccccc21)Nc1cc(F)ccc1F,x,-0.6,x,2,x,
C=CCn1nc(-c2ccccc2)c(N2CCCCC2)cc1=O,2%,2.6,-3,-2,x,
COc1ccc(NC(=O)c2ccc(N3C(=O)C4CC=C(C)CC4C3=O)cc2)c(OC)c1 (centres undefined),x,-1.4,x,4,x,
Cc1cc2cc3c(cc2nc1SCC(=O)OC(C)C)OCCO3,-8%,-1.3,-3,1,-5,

# An excerpt from above in order of length of the SMILES, descending:
SMILES,Mtb H37Rv,RecA intein inh,Arbovirus inh,Mtb bLac sens,YopH inh,others
O=C(NCCN1C(=O)S/C(=C/c2cccnc2)C1=O)C1CC(=O)N(Cc2ccccc2)C1 (centres undefined),5%,-0.1,30*,4,x,
COc1ccc(NC(=O)c2ccc(N3C(=O)C4CC=C(C)CC4C3=O)cc2)c(OC)c1 (centres undefined),x,-1.4,x,4,x,
COc1ccc(C(=O)COC(=O)c2ccc(OC)c(OC)c2)cc1OC,-7%,0.2,-7,-2,-29,
Cc1cc2cc3c(cc2nc1SCC(=O)OC(C)C)OCCO3,-8%,-1.3,-3,1,-5,
O=C(/C=C/Nc1ccc(F)cc1)c1cccs1,0%,0.8,x,2,-19,

# More compounds follow.
SMILES,Mtb H37Rv,RecA intein inh,Arbovirus inh,Mtb bLac sens,YopH inh,others
CCn1c(SCC(=O)NCCc2ccccc2)nc2c([nH]c3ccccc32)c1=O,x,-0.4,x,0,x,
COc1ccc2c(C)cc3n[nH]c(=S)n3c2c1,-1%,-3.1,x,-4,x,
COC(=O)c1nc(NNC(=O)c2ccccc2)sc1-c1ccccc1,x,-0.5,x,-3,x,
COc1cc(CN2CCN(c3cc(C)ccc3C)CC2)cc([N+](=O)[O-])c1O,1%,2.5,x,u,-26,
Cn1c(-c2cc(Cl)ccc2O)nc2c1c(=O)[nH]c(=O)n2Cc1ccccc1,4%,0.1,23,0,x,
O=C(Nc1ccccc1C(=O)Nc1ccc2c(c1)OCO2)c1cccs1,19%,0.7,-1,-16,-10,
CCCc1nn2c(N)c(/C=C3\C=Nc4ccccc43)c(=O)nc2s1,-1%&-3%,-2.8&-2.5,71*,2&6,-27,
Cc1cc(C)cc(NC(=O)OCCN2CCN(Cc3ccccc3)CCC2=O)c1,-12%,-2.1,8,-9,-22,
O=C(C1CCN(S(=O)(=O)N2CCC3(CC2)OCCO3)CC1)N1CCN(Cc2ccccc2)CC1,0%,1.4,11,4,-33,
CCCCOC(=O)c1cc(C)nc2ccc(Br)cc12,46%,-1.5,5,17,-7,
Cc1ccc(CSCC(=O)NCCc2ccccc2)cc1,-1%,-2.3,-3,-1,x,
Nc1cccc(Nc2nc(OC(C(F)(F)F)C(F)(F)F)nc(OC(C(F)(F)F)C(F)(F)F)n2)c1,11%,-2.3,-31,-5,21,
Oc1ccc(Br)cc1/C=N/n1c(COc2ccccc2)n[nH]c1=S,x,-0.4,x,-5,x,
COc1ccc(/C=C(\C#N)C(=O)OCC(=O)NCc2ccccc2OC)cc1,x,-0.2,x,-9,x,
O=C(c1ccc2c(c1)ncn2C1CCCCCC1)N1CCC2(CC1)OCCO2,-2%,1.7,-9,-3,-31,
CC1=C(C(=O)N2CCCCC2)C(c2cccs2)C2=C(CCCC2=O)N1 (centres undefined),-8%,-0.8,-1,-4,-20,Arbovirus inh repeat=6
COC(CNC(=O)c1ccc2c(c1)nc(C)n2-c1cc(C)cc(C)c1)OC,x,0.6,x,5,x,
CCCCC(=O)Nc1ccc(C(=O)N2CCN(c3ccccc3OC)CC2)cc1,x,-1.8,-8,-5,16,
S=C(NCc1ccncc1)Nc1ccccc1,-2%,13,1,5,x,
CCCNC(=O)c1ccc(N2CCC3(CC2)CC(c2ccccc2)=NO3)c(NC(=O)Cc2ccc(F)cc2)c1,x,5.6,x,99,x,
CCOC(=O)c1c(Cc2cccc(Cl)c2)c[nH]c1C,x,6.4,7,-2,-25,
Nc1c(C(=O)O)sc2nc(-c3ccccc3)cc(-c3ccc(Cl)cc3)c12,-5%,8.8,x,2,x,
CON/C=N/C(=S)Nc1ncc(C(F)(F)F)cc1Cl,66%,-0.1,-4,6,x,
Cn1c(O)c(C=NC2CC3CCC2(C)C3(C)C)c(=O)[nH]c1=O (centres undefined),5%,-1.1,-20,-3,-7,
CCOC(=O)C1CCN(C(c2ccc(OC)c(OC)c2)c2sc3nc(C)nn3c2O)CC1 (centres undefined),1%,-0.1,5,-2,-8,Arbovirus inh repeat=4
CN(CC(=O)Nc1nc2ccccc2s1)S(=O)(=O)c1ccc(Br)cc1,7%,-1.2,13,-21,-4,
CCCn1nnnc1NCc1ccc(N2CCCC2)cc1,-4%,-3.8,5,-3,-20,
Cc1onc(-c2ccccc2)c1C(=O)Nc1ccon1,0%,0.0,3,-1,-11,
O=C(COc1ccccc1F)NCC(c1ccco1)N1CCCC1 (centres undefined),0%,12,12,-8,x,

# This is a subset, so the mix of outcomes need not match the whole.
